Six1-Eya2 inh – Six1/Eya2 interaction inhibition | Q15475+O00167 | AlphaScreen GST-Six1/His-Eya2 binding, biochemical; hits give low values; control for the full effect not named in the record | activity change, % (concentration not given with the values) | 0.56% of 360,000 active | AID 651725; in the data active = activity change below about -65%; inconclusive = about -30% to -65%; inactive = above about -30%; further: on the % scale 0 is the no-effect control and ±100 the full control effect
Target sequence (O00167 whole entry, looked up): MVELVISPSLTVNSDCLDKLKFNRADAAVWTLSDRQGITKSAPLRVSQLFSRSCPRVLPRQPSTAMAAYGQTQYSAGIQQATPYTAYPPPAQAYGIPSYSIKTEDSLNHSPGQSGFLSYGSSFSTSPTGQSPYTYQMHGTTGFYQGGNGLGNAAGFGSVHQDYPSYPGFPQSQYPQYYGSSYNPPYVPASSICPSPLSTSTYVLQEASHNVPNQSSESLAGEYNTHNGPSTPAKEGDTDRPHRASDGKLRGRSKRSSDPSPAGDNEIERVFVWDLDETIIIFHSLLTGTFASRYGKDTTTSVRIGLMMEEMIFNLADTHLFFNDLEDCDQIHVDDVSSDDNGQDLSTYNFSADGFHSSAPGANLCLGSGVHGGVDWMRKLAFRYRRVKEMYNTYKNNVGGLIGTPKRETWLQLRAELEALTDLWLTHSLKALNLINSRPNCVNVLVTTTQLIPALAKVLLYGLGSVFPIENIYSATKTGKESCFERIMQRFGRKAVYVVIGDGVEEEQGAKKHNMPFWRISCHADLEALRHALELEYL
Target sequence (Q15475 whole entry, looked up): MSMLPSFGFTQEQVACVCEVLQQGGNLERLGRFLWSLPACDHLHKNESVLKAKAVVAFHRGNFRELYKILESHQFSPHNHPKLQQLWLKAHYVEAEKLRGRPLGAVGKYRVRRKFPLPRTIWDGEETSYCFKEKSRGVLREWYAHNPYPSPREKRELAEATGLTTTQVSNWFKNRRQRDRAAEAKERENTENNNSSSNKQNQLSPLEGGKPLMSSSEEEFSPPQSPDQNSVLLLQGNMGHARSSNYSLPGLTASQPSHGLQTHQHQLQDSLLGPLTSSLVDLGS
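Compounds are tested against tagged Six1 and Eya2 proteins bridged by glutathione donor and nickel acceptor beads; after a one-hour incubation at 37 °C without light, AlphaScreen emission is recorded.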
CtBP-E1A inh – CtBP/E1A binding inhibition | activity change, % (no concentration beside the values) | 0.49% of 340,000 active | AlphaScreen GST-E1A/His-CtBP binding, 1536-well; hits give low values; control for the full effect not named in the record; in the data active means activity change below about -65%; inconclusive means about -30% to -65%; inactive means above about -30%; further: on the % scale 0 is the no-effect control and ±100 the full control effect; compound concentration not given in the record
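Homogeneous bead-based format: GST-tagged E1A captured on glutathione donor beads, His-tagged CtBP on nickel acceptor beads; compounds precede bead addition by 2 h at 37 °C.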
TRPML1 blocker – inhibitors of human TRPML1 channel. TRPML1-inducible cells, Ca2+ dye fluorescence, FDSS; hits give low values; inhibition of EC80 agonist-evoked calcium signal. Q9GZU1. AID 624415. activity change, negative = inhibition, % (test concentration not listed). 0.02% of 390,000 active; in the data active means activity change below about -50%; inconclusive means about -30% to -50%; inactive means above about -30%;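 further: stimulus is agonist 54-4 at its EC80 concentration; on the % scale 0 is the no-effect control and ±100 the full control effect; compound concentration not given in the record; the text of the record puts the active cut at -80%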
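Calcium fluorescence in TRPML1-DL cells induced overnight with Tet: a 110 s read after compound pin addition, then a 110 s antagonist read after challenge with 54-4 at 4 uM final (EC80).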
PINK1 modulator – modulators of PINK1 expression; Potency, µM (titrated, usually from 76.6 µM), for inactives: at the highest dose activation (PINK1 increase), usual class: activators; PINK1 immunofluorescence, high-content cytometry, 24 h; 0.2% of 410,000 active; AID 624263; active = well fitted activation curve with a large enough effect; inconclusive = small, poorly fitted or top-dose-only effect; inactive = flat fitted curve, though single readings scatter; cell line not stated here;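 further: potency means the concentration at half of the fitted maximal effect; % of control where 0% means no effect; nearly all actives have a fitted effect of over 65% in size; a mitochondrial uncoupler was the plate control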
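Compound titrations (5 concentrations, 24 h) on a stable cell line; DMSO and CCCP controls. Endpoint: fixed-cell PINK1 immunofluorescence with mitochondrial, cell and nuclear markers, scanned by microplate cytometer.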
D2 ag – human D2 receptor agonism in beta-arrestin assay. activation, % (concentration not given with the values). 0.084% of 360,000 active. AID 624465. P14416. DiscoveRx PathHunter D2 beta-arrestin, luminescence, 90 min; 100% = 57 uM dopamine signal; in the data active = activation above about 40%; inconclusive = about 15% to 40%; inactive = below about 15%; further: compound concentration not given in the record; the text of the record calls up to 30% inactive
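DiscoveRx PathHunter D2 beta-arrestin cells (2,100/well) attached overnight, then compound-stimulated 90 min at 37 C in HBSS/10 mM HEPES/0.1% Tween-20 buffer; beta-galactosidase complementation read by luminescence after 1 h at ambient temperature. Dopamine 57 uM final (EC100) as control.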
TRPML1 agonist – agonists of human TRPML1 channel; Q9GZU1; TRPML1-expressing cells, Ca2+ dye fluorescence, FDSS; host cell line not named in the record; reference of the full effect not given here; activation, % (test concentration not listed); 0.12% of 410,000 active; in the data active = activation above about 50%; inconclusive = about 30% to 50%; inactive = below about 30%; further: 0% is about no effect; the text of the record puts the active cut at 80%
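Calcium fluorescence on an FDSS kinetic reader gave the read-out. Tet-induced TRPML1-DL cells were plated overnight, dye-loaded (Ca8 with quencher, 45-90 min, room temperature, dark), then read 110 s after compound addition, and again 110 s after 4uM final 54-4 (EC80).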
* marks the source's active call; other numbers are inactive results; ? = inconclusive; · = not tested or not shown; [ ] = remark or other dose. Rows were taken by chance. Share with any hit: about 1%.

SMILES	Six1-Eya2 inh	CtBP-E1A inh	TRPML1 blocker	PINK1 modulator	D2 ag	TRPML1 agonist
COc1ccc(COC(=O)c2ccc(Br)c(S(=O)(=O)N3CCOCC3)c2)cc1F	-4	9	1	-1.0%	-4.2	1.5
CC(=O)Nc1cc(C(=O)NCc2ccco2)ccc1Sc1ccc(Cl)cc1	-14	-20	3	-2.2%	-3.7	0.9
CC1Cc2ccccc2N1C(=O)CSc1nnc2n1C(C)(C)Cc1ccccc1-2 (configuration not stated)	-6	0	6	-1.4%	-2.6	2.9
CCOc1ccc(N2C(=O)C(c3ccccc3)=C(c3nc4ccccc4s3)C2NC(C)=O)cc1 (configuration not stated)	-2	-4	3	6.6%	-0.3	0.2
CN1CCCN(Cc2ccc(Cl)cc2Cl)CC1	-3	6	10	24%[38.3 µM]	-2.1	0.0
N#Cc1cccc(NC(=O)CSc2sc3c(O)cc(=O)[nH]c3c2C#N)c1	-23	0	44	3.3%	-4.1	0.3
COc1ccccc1CNC(=S)Nc1cc(C)ccc1C	10	3	-10	-1.1%	2.3	1.3
O=C(c1ccccc1)N1CCc2ccccc21	1	0	0	0.3%	-3.1	-1.4
C=CC[C@@H](CC(=O)N[C@@H](CO)Cc1ccccc1)C(=O)N[C@@H](COC(=O)[C@@H](CC=C)Cc1ccc(F)cc1)Cc1ccccc1	-1	8	1	11%	3.9	1.3
Cc1ccc(Oc2ccccc2NC(=O)C2=COCCO2)cc1	15	-2	3	1.5%	-1.5	0.1
Cc1nnc(SCc2ccccc2CSc2nnc(C)s2)s1	12	4	32	0.2%	-2.2	-0.7
CC(C)(C)c1ccc(C(=O)N2CCC(NC(=O)c3ccccc3)CC2)cc1	2	3	5	1.2%	1.1	0.6
CCN1CCN(CCNC(=O)c2ccc(CS(=O)c3ccc(Cl)cc3)o2)CC1 (configuration not stated)	5	6	-2	-0.5%	-4.0	-0.4
COc1ccc(/C=N/NC(=O)c2ccccc2O)cc1COc1ccccn1	-5	?	·	0.8%	-7.5	·
Fc1ccc(-c2csc(-c3nc(-c4ccc(Br)s4)cs3)n2)cc1	·	·	14	-0.8%	·	-0.4
COc1nc(-c2cnccn2)sc1C	2	1	0	2.9%	3.5	0.6
O=C(CCCc1nc(-c2ccccc2)no1)NC1CCCC1	-6	4	-10	-0.2%	-4.3	0.6
COc1ccc(C(=O)NCC2(N3CCCCC3)CCCCC2)cc1S(=O)(=O)N(C)C	-2	6	-3	0.7%	0.6	-0.3
Cc1cccc(-n2ccnc2SCC(=O)Nc2nccs2)c1	-10	-5	-13	-1.5%	-1.5	0.0
CC(C)(C)OC(=O)N(Cc1ccccc1)Cc1ccc(OCc2cccc(NC(=O)c3ccccc3)c2)cc1	2	3	-3	-0.1%	0.2	0.3
Cc1nnc(NC(=O)CCSCCC(=O)Nc2nnc(C)s2)s1	-6	·	4	2.2%	-7.8	0.5
CC(C)(C)c1ccc(OCC(=O)NNC(=S)NC(=O)c2ccccc2[N+](=O)[O-])c(Br)c1	-19	-1	-18	?	-7.4	1.0
O=C1CSC(c2ccncc2)N1Cc1ccc(F)cc1 (configuration not stated)	-7	2	0	-1.4%	4.0	3.0
CCOc1cc(NC(=O)c2cccs2)c(OCC)cc1NC(=O)c1ccccn1	5	7	-14	10.0%	-1.3	0.0
CCCCCCC(=O)Nc1nnc(CC)s1	1	8	-8	-1.3%	-1.5	-0.6
Cc1onc(-c2ccccc2)c1C(=O)OCC(=O)Nc1ccc(Cl)cc1	6	-2	6	?	3.0	5.2
COc1ccc(S(=O)(=O)N(C)C[C@@H]2Oc3cc(Br)ccc3S(=O)(=O)N([C@H](C)CO)C[C@@H]2C)cc1	-26	-11	-5	5.0%	-4.3	1.3
Cc1c(S(=O)(=O)c2ccccn2)c(N)n(Cc2cccc(Cl)c2)c1C	0	·	-7	1.0%	-6.6	-0.7
O=C(CNC(=O)c1ccc(C(F)(F)F)cc1)NC1CC1	6	1	2	-1.5%	-3.4	0.5
CC(=O)Nc1ccc2oc(C)nc2c1	1	-2	-10	2.2%	1.0	-0.6

Ordered by formula weight (rising): some entries from above.
SMILES	Six1-Eya2 inh	CtBP-E1A inh	TRPML1 blocker	PINK1 modulator	D2 ag	TRPML1 agonist
CC(=O)Nc1ccc2oc(C)nc2c1	1	-2	-10	2.2%	1.0	-0.6
O=C(CNC(=O)c1ccc(C(F)(F)F)cc1)NC1CC1	6	1	2	-1.5%	-3.4	0.5
O=C1CSC(c2ccncc2)N1Cc1ccc(F)cc1 (configuration not stated)	-7	2	0	-1.4%	4.0	3.0
O=C(CCCc1nc(-c2ccccc2)no1)NC1CCCC1	-6	4	-10	-0.2%	-4.3	0.6
Cc1cccc(-n2ccnc2SCC(=O)Nc2nccs2)c1	-10	-5	-13	-1.5%	-1.5	0.0
Cc1onc(-c2ccccc2)c1C(=O)OCC(=O)Nc1ccc(Cl)cc1	6	-2	6	?	3.0	5.2
Cc1nnc(NC(=O)CCSCCC(=O)Nc2nnc(C)s2)s1	-6	·	4	2.2%	-7.8	0.5
Cc1c(S(=O)(=O)c2ccccn2)c(N)n(Cc2cccc(Cl)c2)c1C	0	·	-7	1.0%	-6.6	-0.7
COc1ccc(C(=O)NCC2(N3CCCCC3)CCCCC2)cc1S(=O)(=O)N(C)C	-2	6	-3	0.7%	0.6	-0.3
CC(C)(C)c1ccc(OCC(=O)NNC(=S)NC(=O)c2ccccc2[N+](=O)[O-])c(Br)c1	-19	-1	-18	?	-7.4	1.0
COc1ccc(S(=O)(=O)N(C)C[C@@H]2Oc3cc(Br)ccc3S(=O)(=O)N([C@H](C)CO)C[C@@H]2C)cc1	-26	-11	-5	5.0%	-4.3	1.3

Additional results:
SMILES	Six1-Eya2 inh	CtBP-E1A inh	TRPML1 blocker	PINK1 modulator	D2 ag	TRPML1 agonist
COc1ccc([N+](=O)[O-])cc1NC(=O)CCN1CCN(c2ccccc2)CC1	-4	-5	-13	1.0%	47*	0.7
N#Cc1c(SCC(=O)Nc2nc3ccc(Br)cc3s2)sc2c(O)cc(=O)[nH]c12	-16	-21	-8	1.1%	2.4	2.2
CC(NC(=O)c1ccccc1F)C12CC3CC(CC(C3)C1)C2 (configuration not stated)	5	9	15	10%	0.1	-0.4
COc1ccc(S(=O)(=O)CCc2nnc(NC(=O)c3ccc(F)cc3)s2)cc1	4	5	-7	0.3%	1.4	-0.7
COC(=O)[C@]1(C)N[C@H](CN(C)S(=O)(=O)c2ccccc2)[C@@H]2C(=O)N(Cc3ccccc3)C(=O)[C@@H]21	6	-13	-10	0.1%	-2.6	-0.4
CCN(CC(=O)Nc1ccccc1C(F)(F)F)C(=O)c1cc2c(s1)CCCCC2	7	2	9	-3.3%	-2.6	2.9
CC(C)c1ccc(Nc2nnc(SCC(=O)c3nnc(-c4ccccc4)o3)s2)cc1	?	-14	-13	-2.0%	2.6	0.8
O=C(CC1(O)C(=O)Nc2ccccc21)c1ccccc1 (configuration not stated)	?	-7	11	1.6%	0.0	-0.7
Cc1cc(C(=O)Nc2nc(C)c(C(=O)N(C)C)s2)ccc1[N+](=O)[O-]	1	2	7	3.8%	-0.6	1.1
O=S(=O)(O)Sc1ccccc1	6	-26	0	2.0%	-4.4	0.0
CCOc1cc(/C=C/c2cccc[n+]2C)ccc1O	1	-3	-4	-1.1%	-4.1	0.7
CCCc1noc(-c2ccc(N3CCCCC3)c([N+](=O)[O-])c2)n1	·	·	10	4.6%	·	-0.3
Cc1cccc2c1N1C(=O)c3c(C(=O)O)cccc3C1CC2C (configuration not stated)	6	0	13	-0.6%	-2.2	-0.4
CCCCC(=O)Nc1sc(C(=O)N(CC)CC)c(C)c1C(=O)OC	-5	-1	3	-1.2%	-2.2	0.5
C/C(=N\NC(=O)c1ccc(O)cc1)c1cc2ccccc2o1	-25	-2	3	-0.3%	6.7	-0.5
Cc1ccc2ncc(C(=O)Nc3cccc(C(F)(F)F)c3)c(=O)n2c1	·	·	-10	-0.2%	·	-0.7
COc1cc(OC)cc(-c2nc3nc(C)c(CCC(=O)NCc4ccco4)c(C)n3n2)c1	-2	0	15	4.0%[38.3 µM]	-1.3	-0.5
Cc1noc(C)c1C(=O)NC(C)C12CC3CC(CC(C3)C1)C2 (configuration not stated)	6	12	16	-0.6%	-3.9	0.0
CC1=CCC(C(=O)O)(C(=O)N/N=C/c2cccs2)C(c2ccc(F)cc2)C1 (configuration not stated)	-1	7	23	14%[38.3 µM]	-3.5	4.1
CN(C)CCCN1C(=O)c2cccc3cccc(c23)C1=O	3	-5	-17	-0.4%	-1.9	-0.5
Cc1cc(C)cc(NC(=O)c2nnn(Cc3cc(C)ccc3C)c2N)c1	-4	-1	-7	6.2%	4.9	10.0
Cc1ccc(C2(c3ccccc3)NC(=O)N(CC(=O)NCc3ccco3)C2=O)cc1C (configuration not stated)	-2	·	1	-0.5%	-4.8	0.2
COc1ccc(C)cc1NC(=O)c1cn(C)c(=O)c2cc(OC)c(OC)cc12	·	·	53	0.8%	·	-0.3
N#CCCCSc1nnc(-c2ccccn2)o1	1	-1	-8	0.9%	-1.0	-0.7
O=C(c1cc(-c2cccc(Cl)c2)on1)N1CCCC1	3	4	-20	0.4%	4.3	0.3
CCCN(CCC)C(=O)Cn1c(=O)n(-c2ccc(Cl)c(Cl)c2)c(=O)c2c(C)c(C(=O)N(C)C)sc21	·	·	-1	-0.6%	·	0.9
Cc1ccc(S(=O)(=O)N2CCN(C(=O)C3CC3C)CC2)c(C)c1 (configuration not stated)	5	5	25	-0.3%	-8.4	-0.5
COc1ccc(/C=C/C(=O)c2c(C)nc3ccccn23)cc1	-1	-3	-4	?	-2.6	-0.7
NS(=O)(=O)c1ccc(CNC(=O)C2CCCN2C(=O)c2cccs2)cc1 (configuration not stated)	1	5	41	0.0%	-1.4	-0.6
COc1ccc(C2CC(c3cccs3)=NN2S(C)(=O)=O)cc1 (configuration not stated)	3	5	14	-2.3%	0.0	-0.4
CCOC(=O)/C=C1\SCC(=O)N1CC(=O)NC(C)c1ccccc1 (configuration not stated)	-3	4	-6	23%	-4.3	-0.5
Cn1nc(C(C)(C)C)cc1NC(=O)Nc1ccc(Cl)cc1	7	11	-3	-1.0%	5.0	-0.3
CC12CCC(C/C1=N\OC(=O)c1ccc(F)cc1)C2(C)C (configuration not stated)	7	8	6	1.0%	-1.2	-0.8
COC(=O)C(Cc1c[nH]c2ccccc12)NC(=O)COc1cccc(C)c1 (configuration not stated)	·	·	-8	0.0%	·	0.8
COC(=O)c1scc(C)c1NC(=O)/C=C/C(=O)O	5	4	4	-0.7%	-2.6	-0.3
CC1(C)Cc2c(ccc3ccccc23)C(c2cc3ccccc3oc2=O)=N1	-1	0	8	·	-0.3	0.0
Cc1ccc(C)c(CN2C(=O)c3ccccc3S(=O)(=O)c3ccc(C(=O)OCC4CCCO4)cc32)c1 (configuration not stated)	·	·	27	2.2%	·	4.5
Cc1ccc(NC(=O)C2CCCN2S(=O)(=O)c2cccc3cccnc23)cc1C (configuration not stated)	·	·	1	1.7%	·	1.1

Source: PubChem BioAssay
